Bioassay records as filed in PubChem.
PABP FP inh: PABP-poly(A) binding inhibition | PABP-poly(A) RNA binding, fluorescence polarization | inhibition, % at 35 µM | P11940 | hit rate 1% among 290,000;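 active = 50% or more with normal probe brightness, or confirmed in later tests; inconclusive = above 50% with abnormal brightness, or retests that disagree; inactive = below 50% or failed in later tests; about a fifth of its hits are not listed in these tables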;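 note: calls also rest on retests at 20 µM and on dose response follow-up; controls were probe without protein and protein plus probe with vehicle; some compounds called inactive have numbers as strong as hits; many hits fall short of the cut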
UUG fidelity: modulators of start codon recognition fidelity in yeast; hit rate 0.13% among 350,000; activity score, % at 18.7 µM; S. cerevisiae UUG-firefly luciferase reporter, luminescence/redox ratio;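 active = replicate mean at a twofold rise or more, about +100% in these data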;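 note: firefly luciferase made from a UUG start codon reports start codon fidelity; reporter light over untreated wells divided by growth signal over untreated wells; some hits fall short of that in this replicate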
Rce1 inh: inhibitors of yeast Ras-converting enzyme; Q03530; yeast membranes, quenched prenylated peptide cleavage fluorescence; calls only; hit rate 0.27% among 290,000; AID 2563;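 active = fall in fluorescence gain of 50% or more versus controls, with final raw signal at or below 3038400; inconclusive = same 50% fall but final raw signal above 3038400; inactive = fall in fluorescence gain under 50%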;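 note: plate controls were neutral control wells for no effect and wells lacking membranes for full effect; tested at 10 µM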
Target sequence (Q03530 whole entry, looked up): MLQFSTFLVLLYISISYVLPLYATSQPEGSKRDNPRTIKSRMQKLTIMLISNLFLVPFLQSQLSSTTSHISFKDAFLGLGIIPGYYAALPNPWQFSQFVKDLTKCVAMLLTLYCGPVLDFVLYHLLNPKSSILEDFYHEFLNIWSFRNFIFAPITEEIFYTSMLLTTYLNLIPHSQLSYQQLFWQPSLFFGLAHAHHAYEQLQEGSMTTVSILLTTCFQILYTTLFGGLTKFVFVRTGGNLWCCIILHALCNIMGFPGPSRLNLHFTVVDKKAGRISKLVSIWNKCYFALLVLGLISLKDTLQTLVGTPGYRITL
CSC inhib: cancer stem cell inhibition | cancer stem cell-like cells viability, luminescence | inhibition, % at 7.5 µM | hit rate 1.1% among 300,000 | AID 2717;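 active = mean at 75% or more and at least half the replicates too; inconclusive = mean and replicates disagree; tested in HMLE shEcad cells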;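 note: 0% = median of negative and 100% = median of positive control wells; the first replicate is given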
eIF4H inh: inhibitors of RNA binding by human eIF4H; hit rate 0.94% among 290,000; Q15056; inhibition, % at 35 µM; eIF4H fluorescence polarization binding assay;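 active = 50% or more with normal probe brightness, or confirmed in later tests; inconclusive = above 50% with abnormal brightness, or retests that disagree; inactive = below 50% or failed in later tests; about a fifth of its hits are not listed in these tables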;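 note: calls also rest on retests at 20 µM and on dose response follow-up; 0% = protein and probe with vehicle and 100% = probe without protein; strong numbers were not always called active; many hits fall short of the cut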
Env fusion inh: inhibitors of HIV Env-mediated cell fusion; HeLa-JRFL Env/CEM21 cell fusion, luciferase; inhibition, % at 12.3 µM; hit rate 1.1% among 360,000;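 active = mean replicate inhibition score of at least 50 and every replicate individually at or above 50; inconclusive = only one of the two criteria met; inactive = mean below 50 and not all replicates reaching 50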;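 note: 0% = plate neutral controls and 100% = maraviroc near 300 nM; one replicate is shown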
MT1-MMP act inh: inhibitors of human MT1-MMP activation; P50281; GFP/RFP ratio change, % at 20 µM; hit rate 0.061% among 360,000; HT1080 RFP-PRO-GFP cells, GFP/RFP ratio fluorescence, overnight; percent of plate control window, DMSO zero; AID 651647;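 active = GFP/RFP ratio change of at least 30% with cell ATP level not reduced by more than half and red fluorescence within 50% of control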; note: strong numbers were not always called active
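Assay system: HT1080 cells carrying an RFP-PRO-GFP reporter | Dosing: Single dose of 20 µM compound, 1% DMSO final | Incubation: Cells overnight before dosing, compound overnight, 37 °C, 5% CO2 | Evaluation: GFP/RFP fluorescence ratio | Control set: DMSO and RFP-L50D-GFP cell wells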
eIF4H inh retest: further read-out of eIF4H inh, marked with its call; inhibition, %; compound at 20 µM; confirmation average;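 mean of two retest wells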
PABP FP inh retest: also measured in PABP FP inh; calls as there; inhibition, %; compound at 20 µM; confirmation repeats;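 mean of two retest wells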
MT1-MMP act inh RFP: further read-out of MT1-MMP act inh, marked with its call; RFP signal change, %; measured here: RFP expression control read;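 0 = vehicle wells; hits needed this value within 50% of zero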
* marks the source's active call; other numbers are inactive results; i = inactive; ? = inconclusive; . = no result given; & = joins results of further samples; [ ] = remark or other dose. The list is partial; the hit share may differ from the screen's.

SMILES	PABP FP inh	UUG fidelity	Rce1 inh	CSC inhib	eIF4H inh	Env fusion inh	MT1-MMP act inh	MT1-MMP act inh RFP	others
COC(=O)c1ccc(OC(=O)C23CCC(C)(C(=O)O2)C3(C)C)cc1 (stereo not drawn)	-5	.	i	-17	4	-7	0	5
O=C1/C(=N/n2cnnc2)c2ccccc2N1Cc1ccccc1	1	.	i	-7	-6	.	.	.
COc1ccc(-c2nn(-c3ccccc3)cc2/C=N/NC(=S)NC(C)C)cc1OC	4	.	i	18	-5	-29	-25	-22
O=C(c1ccc2c(c1)OCO2)N1CCC2(CC1)Oc1ccc(Cl)cc1C(=O)C21CC(c2cccnc2)=NO1 (stereo not drawn)	6	-14	i	-8	-11	0	-2	-1
COc1ccc(C(=O)NCc2nnc(SC)n2C2CCCCC2)cc1	-9	-7	i	-12	-4	-6	0	-4
Cc1sc2ncnc(SCC(=O)Nc3ccc(S(=O)(=O)N4CCOCC4)cc3)c2c1C	.	-16	.	.	.	12	0	-1
COc1cccc(/C=C2\SC(=O)N(CC(=O)NCCCn3ccnc3)C2=O)c1	4	-29	i	46	2	0	3	0
CCCn1nc(NC(=O)c2cccs2)c2cc3ccc(C)cc3nc21	7	-12	i	-1	-2	-6	3	-2
Nc1ccc(-c2nc3cc(N)ccc3s2)cc1	1	-32	i	6	1	-137	3	2
CC(=O)NNS(=O)(=O)c1ccc(-c2cc(C(F)(F)F)n(C)n2)s1	1	.	i	-3	10	-1	0	-1
COc1ccccc1CNC(=O)CNC(=O)c1cn(-c2ccccc2OC)c(=O)c2ccccc12	4	-4	i	-11	-2	-11	0	4
O=C(COC(=O)c1cc(S(=O)(=O)N2CCCC2)ccc1O)Nc1ccc(S(=O)(=O)N2CCOCC2)cc1	-3	.	i	-1	1	-5	2	2
COCc1cc(C)nc2sc(C(=O)N3CCCC3)c(N)c12	-2	-14	i	0	-8	.	-1	-2
COc1ccccc1NS(=O)(=O)c1ccc(C)c(C(=O)NC2CCN(Cc3ccccc3)CC2)c1	.	-14	.	.	.	30	-8	-17
O=C(O)CCNc1cc(N2CCN(C(=O)c3ccco3)CC2)c2noc3c2c1C(=O)c1ccccc1-3	95*	-22	i	23	101*	11	6	43
CCC1=NC(c2ccccc2OC)N(O)C1(C)C (stereo not drawn)	-1	-14	i	-13	-10	.	3	3
COc1ccccc1NC(=O)CSc1c2c(nc3ccccc13)CCC2	-13	.	i	1	7	.	4	-8
CN(c1ccccc1)S(=O)(=O)c1ccc(C(=O)Nc2nnc(C3CC3)o2)cc1	-7	.	.	25	13	8	-4	1
O=C(N/N=C/c1ccc(OC(=O)c2ccccc2)cc1)c1cccnc1	2	-1	i	-2	7	57*	-1	-3
Fc1ccc(N/N=C/c2cccnc2)c(F)c1	13	.	i	-1	-7	-23	-1	-1

3 entries drawn at random from the list so far, as already listed:
SMILES	PABP FP inh	UUG fidelity	Rce1 inh	CSC inhib	eIF4H inh	Env fusion inh	MT1-MMP act inh	MT1-MMP act inh RFP	others
O=C(N/N=C/c1ccc(OC(=O)c2ccccc2)cc1)c1cccnc1	2	-1	i	-2	7	57*	-1	-3
COCc1cc(C)nc2sc(C(=O)N3CCCC3)c(N)c12	-2	-14	i	0	-8	.	-1	-2
CN(c1ccccc1)S(=O)(=O)c1ccc(C(=O)Nc2nnc(C3CC3)o2)cc1	-7	.	.	25	13	8	-4	1

(listing goes on)
SMILES	PABP FP inh	UUG fidelity	Rce1 inh	CSC inhib	eIF4H inh	Env fusion inh	MT1-MMP act inh	MT1-MMP act inh RFP	others
O=C(COC(=O)C12CC3CC(CC(C3)C1)C2)Nc1ccc([N+](=O)[O-])cc1Br	6	-18	i	16	1	15	-3	-3
CC12CCC(C(=O)Nc3ccc(SC(F)F)cc3)(CC1=O)C2(C)C (stereo not drawn)	-5	4	i	31	-3	.	4	-1
CN(CC1CCCN(CCc2cccc(C(F)(F)F)c2)C1)C(=O)c1ccc2nc[nH]c2c1 (stereo not drawn)	-4	-18	i	9	-2	-1	-2	-1
CCCCc1nc2ccccc2c(NC(=O)CN(CC)CC)c1CCC	22	1	i	-8	-2	-6	-13	-6
Cc1cc2c(c(SCC(=O)NCc3ccccc3Cl)n1)C(=O)OC2	-6	-2	i	5	-2	12	9	3
NN=C(c1ccccc1)c1ccccc1	.	-5	i	9	.	10	-1	-6
O=C(OCN1C(=O)c2ccccc2C1=O)/C(=C\c1ccco1)NC(=O)c1ccccc1	2	-5	i	7	-8	-21	-6	5
O=C(c1ccco1)N1CCN(C(=O)c2cc3c(=O)oc4ccccc4c3s2)CC1	9	-14	i	0	6	.	1	-3
CC(=O)Nc1ccc(S(=O)(=O)Nc2ccc(C)c([N+](=O)[O-])c2)cc1	-9	3	i	-10	-3	19	4	-7
O=C(CN1CCCc2ccccc21)NCc1ccccc1Cl	0	.	i	-13	3	3	-10	6
CCCc1nc(SCC(=O)c2ccc(OC)cc2)c2ccccc2n1	-10	-6	i	63	-6	37	-4	-7
O=C(Cc1ccc2c(c1)CCCC2)Nc1ccccc1Br	1	-14	i	.	-8	.	1	-6
Fc1cccc2ncnc(OCc3ccccc3)c12	?	.	i	-13	4	-8	3	9
COc1ccc(CCNCc2ccc(OCC(=O)N3CCCCC3)c(OC)c2)cc1OC	7	8	i	-16	-4	1	-2	3
COc1cccc(NC(=O)CN(C)C(=O)c2ccc(OCc3ccccc3)c(OC)c2)c1	.	-8	i	-7	.	.	-2	-7
Cn1c(=O)n(C)c2cc(S(=O)(=O)N3CCCc4ccccc43)ccc21	-4	-1	i	15	-5	?	10	-8
COC(=O)C1=C(C)n2nnnc2NC1c1cc2ccccc2o1 (stereo not drawn)	9	.	i	-2	10	7	3	4
COc1cc(/C=C/C(=O)OC(C)C(=O)Nc2c(C)n(C)n(-c3ccccc3)c2=O)ccc1OCC#N (stereo not drawn)	7	-17	i	-3	-9	-9	6	2
O[C@H]1CN(CC2CCCCC2)[C@@H](c2ccc(Cl)cc2)C[C@@H]1n1cc(C2CC2)nn1	.	-10	.	.	.	33	-5	-28
O=C(Nc1ccccc1C(=O)N1CCOCC1)c1ccc(Br)cc1	5	-21	i	-21	-4	.	2	2
CCOc1ccc(C(=O)Nc2ccccc2C#N)cc1[N+](=O)[O-]	-1	.	i	-11	-1	46	-4	-10
Cc1ccc(S(=O)(=O)NCc2csc(C)n2)cc1	14	-8	i	10	1	-7	-3	-1
CC1(C)c2[nH]c3ccccc3c2C[C@H]2C(=O)N(Cc3ccc(F)cc3)C(=O)N21	.	-12	i	3	.	12	3	-5
CNC(=S)NNC(=O)c1noc(C)c1C(=O)N1CCN(C(c2ccccc2)c2ccccc2)CC1	-4	.	i	-16	-2	3	-1	0
CC1CCCC(C)N1C(=O)c1cc(-c2ccc(Cl)c(Cl)c2)on1 (stereo not drawn)	-4	-10	i	18	-2	-75	1	-2
O=C(COc1ccccc1)N1N=C(c2cccnc2)CC1(O)C(F)(F)F (stereo not drawn)	60	-9	i	-4	2	11	2	7	eIF4H inh retest=-8;PABP FP inh retest=1
O=C(NCc1cccs1)[C@@H]1CSC2c3ccccc3C(=O)N21 (stereo partly drawn)	-14	-15	i	-10	-1	.	-5	1
Cc1ccc(O)c(CO)n1	24	-3	i	-14	10	-75	-1	4
CN(C)c1ccc(/C=N\NC(=O)c2csnn2)cc1	7	-10	i	-1	-7	.	-7	1
O=C(Cc1ccc(Cl)cc1)Oc1cccc2cccnc12	-1	-14	.	22	4	.	4	9
C[C@@H]1C=C(C(=O)NCc2nc3ccccc3[nH]2)O[C@H](OCc2ccc(CO)cc2)C1	26	-4&-25	i	17	-11	-7[16.7 µM]	3	-7
CSc1nc(=O)n(-c2ccccc2)c(C)c1C(C)=O	0	-5	i	-7	-11	2	-3	-3
Cc1ccc(NC(=O)Nc2ncccc2C)cc1	2	.	i	3	-1	-101	1	-2
CCN1CCN(Cc2c(C)[nH]c3ccc(C(=O)OC)cc3c2=O)CC1	-13	-8	i	-2	6	-46	2	5
Cc1ccc(F)cc1NC(=O)N1CCCN(C(=O)OC(C)(C)C)CC1	3	.	i	-7	-5	10	0	3
COc1ccc(C2/C(=C(/O)c3ccc(OC(C)C)cc3)C(=O)C(=O)N2CCCN2CCOCC2)cc1 (stereo not drawn)	-10	.	i	-9	2	-27	-3	1
COc1ccc(Cl)cc1NC(=O)C1CCCN(S(=O)(=O)c2cccc3nonc23)C1 (stereo not drawn)	-6	-10	i	.	0	.	6	2
O=C(CNC(=O)c1ccc(Cl)cc1)Nc1ccc(S(=O)(=O)Nc2ncccn2)cc1	7	-9	i	-24	-11	4	-1	-1
CCN(CC)C(=O)Cn1ncc2c1-c1ccccc1OC2	-22	-1	i	6	63*	-11	4	2	eIF4H inh retest=72*;PABP FP inh retest=26
N#CCCN(C(=O)COC(=O)c1ccc(Cl)nc1)c1ccc2c(c1)OCCO2	.	-9	.	.	.	-21	3	7
CCc1ccccc1NC(=O)c1onc(C)c1Cl	0	-4	i	-1	1	-1	2	6
CN(C)S(=O)(=O)Oc1ccc(Cl)cc1C(=O)Nc1ccc(F)cc1F	0	.	i	-11	-2	-1	1	2
CCOCCCNC(=O)C(c1ccccc1)N(Cc1ccc2c(c1)OCO2)C(=O)CNC(C)=O (stereo not drawn)	0	-2	i	3	1	-67	1	8
Cn1nc(C(C)(C)C)c(NC(=O)c2sccc2Cl)c1C(C)(C)C	3	-2	i	-2	3	17	0	-3
COc1cc(C(=O)Nc2ccccc2N2CCOCC2)ccc1OCc1c(C)noc1C	-6	-14	i	-16	7	-6	8	5
Cn1c(NCCc2ccccc2)cc(=O)n(C)c1=O	2	-20	i	-11	4	.	-2	-2
CC(=O)Nc1c2c(nn1-c1cccc(Cl)c1)CS(=O)(=O)C2	9	-19	i	1	-7	-1	1	3
O=C(CSc1ncccn1)NCCc1ccccc1	-4	-13	i	-7	-8	-1	-2	4
COC(=O)CCC(=O)OC1(C)C(=O)C=C2C=C(C3CC3)N(CCN3CCOCC3)C=C2C1=O (stereo not drawn)	36	5	i	-14	68	-20	-6	2	eIF4H inh retest=18;PABP FP inh retest=34
CCC(C)NC(=O)CCC(=O)Nc1ccc2nc(N3CCOCC3)cc(C)c2c1 (stereo not drawn)	0	-6	i	.	-3	-10	5	1

The listing continues.
SMILES	PABP FP inh	UUG fidelity	Rce1 inh	CSC inhib	eIF4H inh	Env fusion inh	MT1-MMP act inh	MT1-MMP act inh RFP	others
O=C(CCCOc1ccc(Cl)cc1Cl)NCCCn1ccnc1	-9	.	i	32	-8	26	-2	-1
CC1CCCN(S(=O)(=O)c2ccc(NC(=O)C3CCN(C(=O)C(C)(C)C)CC3)cc2)C1 (stereo not drawn)	.	10	.	-7	.	-2	6	-7
CCNC(=S)Nc1cc2oc3ccccc3c2cc1OC	2	-12	i	13	-12	-35	-1	1
O=c1cc(CN2CCN(S(=O)(=O)c3ccccc3)CC2)nc2ccc(Cl)cn12	.	0	.	6	.	15	-2	3
Cc1cc(C)nc(SCC(=O)OCC(=O)N(C)c2c(N)n(Cc3ccccc3)c(=O)[nH]c2=O)n1	2	0	i	6	-5	-199	-1	0
CC1c2[nH]c3ccccc3c2C[C@H]2C(=O)N(CCCO)CC(=O)N12 (stereo partly drawn)	-6	-18	i	-11	-11	-9	-5	-5
Cc1cc(C)c2nc(SCC(=O)Nc3cc(C)on3)c(C)cc2c1	16	.	i	5	-5	-5	-2	1
Cc1ccc([N+](=O)[O-])cc1NC(=O)C(C)N1CCCCC1 (stereo not drawn)	-10	.	i	10	-8	16	4	6
